Compound activity (PubChem BioAssay)
D2 agonist – activates the human D2 dopamine receptor; P14416; activation, % (no concentration beside the values); DiscoveRx PathHunter D2 beta-arrestin, luminescence, 90 min; 100% = 57 uM dopamine signal; actives 0.084% (n = 360,000); in the data active = activation above about 40%; inconclusive = about 15% to 40%; inactive = below about 15%; also: compound concentration not given in the record; the text of the record calls up to 30% inactive
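DiscoveRx PathHunter D2 beta-arrestin cells (2,100/well) attached overnight, then compound-stimulated 90 min at 37 C in HBSS/10 mM HEPES/0.1% Tween-20 buffer; beta-galactosidase complementation read by luminescence after 1 h at ambient temperature. Dopamine 57 uM final (EC100) as control.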
D2 potentiator – potentiates the human D2 dopamine receptor allosterically | DiscoveRx D2 beta-arrestin cells, luminescence, 90 min; 100% = 57 uM dopamine signal | P14416 | AID 624464 | actives 0.23% (n = 360,000) | potentiation, % (test concentration not listed); active = potentiation of 50% or more; inconclusive = 30% to 50%; inactive = 30% or less;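 also: compound concentration not given in the record; tested on top of an EC20 dose of dopamine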
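D2 cells co-treated with compound plus 50 nM dopamine (EC20) for 90 min at 37 deg C to detect potentiation. Beta-arrestin recruitment was read as enzyme-fragment luminescence after 1 h at ambient temperature. Full response was set by 57 uM dopamine.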
gsp agonist – activates gsp, the McCune-Albright syndrome mutation; Potency, µM (series often up to 76.9 µM), without a hit: at the top dose activation (cAMP increase), usual class: activators; AID 624287; actives 0.13% (n = 340,000); gsp mutant cells, cAMP HTRF, 30 min; control for the full effect not named in the record; active = well fitted activation curve with a large enough effect; inconclusive = small, poorly fitted or top-dose-only effect, or another doubt; inactive = no such curve, though single readings can be large or run the other way; cell line not stated here;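 also: phosphodiesterase inhibitor Ro 20-1724 added with compounds to block cAMP breakdown; potency is read from the fitted curve at half-maximal effect; nearly all actives have a fitted effect of over 60% in size; about a fifth of the inactives were tested at one dose only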
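Cells stably selected in G418 were plated at 2000/well, grown 16-24 hr, then given compounds in DMSO with the PDE inhibitor […] (300 uM solution added) for 30 min at 37C; cAMP was read by HTRF.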
gsp antagonist – gsp mutant antagonism. Potency, µM (highest dose often 76.9 µM), without a hit: at the highest dose activity change, negative = inhibition, usual class: inhibitors. actives 0.4% (n = 340,000). gsp-mutant cells, cAMP HTRF, 30 min; control for the full effect not named in the record; active = falling curve of any shape with a large fitted effect; inconclusive = falling curve, mostly with a smaller effect; inactive = flat or rising curve; cell line not stated here;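 also: intracellular cAMP measured with PDE inhibitor Ro 20-1724 present during compound exposure; potency is read from the fitted curve at half-maximal effect; % is scaled to controls: 0 for no effect and ±100 for the full control effect; nearly all actives have a fitted effect of over 65% in size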
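Cells in G418 medium, seeded 16-24 h, 37C; buffer exchange to DPBS + 1 mM CaCl2, 0.5 mM MgCl2, 0.05% BSA; cpds in DMSO + […] (300 uM stock), 30 min 37C; HTRF cAMP detection.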
Six1-Eya2 inh – blocks human Six1 binding to Eya2; Q15475+O00167; AlphaScreen GST-Six1/His-Eya2 binding, biochemical; hits give low values; control for the full effect not named in the record; activity change, % (test concentration not listed); actives 0.56% (n = 360,000); AID 651725; in the data active = activity change below about -65%; inconclusive = about -30% to -65%; inactive = above about -30%; also: % is scaled to controls: 0 for no effect and ±100 for the full control effect; compound concentration not given in the record
Target sequence (O00167 whole entry, looked up): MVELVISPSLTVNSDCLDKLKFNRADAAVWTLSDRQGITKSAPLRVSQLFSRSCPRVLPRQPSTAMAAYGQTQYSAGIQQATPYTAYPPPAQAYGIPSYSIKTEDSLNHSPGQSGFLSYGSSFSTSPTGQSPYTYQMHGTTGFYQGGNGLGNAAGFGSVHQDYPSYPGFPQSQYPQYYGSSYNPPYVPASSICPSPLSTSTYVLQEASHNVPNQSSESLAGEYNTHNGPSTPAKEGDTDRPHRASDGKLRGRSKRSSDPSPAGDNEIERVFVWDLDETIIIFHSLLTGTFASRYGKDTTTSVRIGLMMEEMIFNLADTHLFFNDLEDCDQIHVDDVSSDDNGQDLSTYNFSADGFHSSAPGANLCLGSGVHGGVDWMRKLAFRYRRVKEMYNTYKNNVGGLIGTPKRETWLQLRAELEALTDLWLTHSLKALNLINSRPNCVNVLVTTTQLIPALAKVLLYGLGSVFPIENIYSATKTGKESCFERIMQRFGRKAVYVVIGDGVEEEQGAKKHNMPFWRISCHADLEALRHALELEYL
Target sequence (Q15475 whole entry, looked up): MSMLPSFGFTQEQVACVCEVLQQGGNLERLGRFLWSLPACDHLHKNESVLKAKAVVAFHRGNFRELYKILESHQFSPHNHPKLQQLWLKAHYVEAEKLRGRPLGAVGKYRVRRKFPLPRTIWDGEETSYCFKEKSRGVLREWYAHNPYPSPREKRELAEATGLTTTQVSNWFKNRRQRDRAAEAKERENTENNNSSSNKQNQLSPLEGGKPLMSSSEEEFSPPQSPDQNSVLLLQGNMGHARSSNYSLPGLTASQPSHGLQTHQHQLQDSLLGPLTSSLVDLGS
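Six1/Eya2 binding was read as AlphaScreen signal after compounds were pinned into GST-Six1 plus His-tagged Eya2 (5X stock 250/500 nM) in pH 8.0 Tris/NaCl/TCEP buffer, beads added, then incubated 1 h, 37 C, dark.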
CtBP-E1A blk – inhibitors of CtBP/E1A interaction | activity change, % (test concentration not listed) | AlphaScreen GST-E1A/His-CtBP binding, 1536-well; hits give low values; control for the full effect not named in the record | AID 651724 | actives 0.49% (n = 340,000); in the data active means activity change below about -65%; inconclusive means about -30% to -65%; inactive means above about -30%; also: % is scaled to controls: 0 for no effect and ±100 for the full control effect; compound concentration not given in the record
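Protein mix (5X: 125 nM each GST-E1A, His-CtBP) was incubated with pinned compound 2 h at 37 deg C in dark, in 50 mM Tris pH 8.0 buffer with 300 mM NaCl. Glutathione donor and nickel acceptor beads followed; AlphaScreen signal read after 1 h.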
Active calls of the source: *; ? = inconclusive; / = not tested or not shown; [ ] = dose if it differs, or a comment.

SMILES	gsp agonist	CtBP-E1A blk	Six1-Eya2 inh	D2 agonist	D2 potentiator	gsp antagonist
COc1cc(/C=N/NC(=O)C2CCN(CC(O)COCc3ccccc3)CC2)cc(OC)c1OC (stereo not drawn)	11%[15.4 µM]	-1	-6	2.9	-23	10%
COCCn1c(SCc2ccc(F)cc2)nc2ccccc2c1=O	22%	27	20	0.8	-11	-6%
FC(F)(F)c1cccc(NC(=S)N2CCCC2)c1	8%[15.4 µM]	7	5	4.0	2	10%
Cc1cccc(-c2ncc(CN3CCN(CC(C)C)C(CCO)C3)cn2)c1 (stereo not drawn)	24%[15.4 µM]	8	7	-2.3	-6	-12%
COC(=O)c1c(-c2ccccc2)csc1NC(=O)c1c(-c2ccccc2)noc1C	-1%[15.4 µM]	-1	-8	-3.6	-15	-8%
O=C(NCc1n[nH]c(=S)n1-c1ccc(Cl)c(Cl)c1)c1ccco1	17%	0	15	0.9	17	0%
CC(C)c1nc2c([nH]1)c(=O)n(C)c(=O)n2C	?	/	2	-2.6	1	9%
CC(=O)Nc1c(Nc2ccccc2)c2ccccc2oc1=O	?	-15	4	-1.2	6	-4%
O=C(NNC(=S)Nc1ccccc1)c1cc(Br)ccc1Cl	8%[15.4 µM]	-7	-13	-12	-33	-5%
Oc1ccccc1CN1CCCN(Cc2ccccc2O)C1	1%	-3	12	-3.2	-15	11%
CCN(Cc1ccncc1)Cc1c(O)ccc2ccccc12	-1%[15.4 µM]	-19	6	3.1	19	2%
Cc1ccccc1N1C(=O)C2C3C=CC(C2C1=O)N(C)C3=O (stereo not drawn)	-11%	14	4	3.2	15	10%
C=CCn1c(SCc2nc3ccccc3c(=O)[nH]2)nc2ccccc2c1=O	22%	-6	-2	-0.8	-5	11%
COCCn1c(=O)[nH]c2cc(C(=O)NCCc3ccc(S(N)(=O)=O)cc3)ccc2c1=O	2%	3	10	2.4	-3	4%
CN/C(=C\[N+](=O)[O-])NCCSCc1ccc(CN(C)C)o1	/	3	-2	-3.3	1	6%
O=C(COC(=O)c1cccs1)NCCCc1ccccc1	1%[15.4 µM]	-2	-1	-0.9	0	8%
CCOC(=O)Cc1c(Sc2ccccc2)c2cc(C)ccc2n1C	-5%	17	27	1.8	-9	-5%
COc1ccc(C(O)c2ncc(-c3cccc(OC)c3)[nH]2)cc1 (stereo not drawn)	/	2	-6	-3.5	-12	/
Nc1c(N(Cc2ccccc2)C(=O)COc2cccc(Cl)c2)c(=O)[nH]c(=O)n1Cc1ccccc1	7%[15.4 µM]	-5	-10	-3.7	0	-17%
CN1C(=O)C2(Nc3ccccc3-c3nc4ccccc4n32)c2ccccc21 (stereo not drawn)	18%	-5	-14	-3.9	-7	-21%

SMILES	gsp agonist	CtBP-E1A blk	Six1-Eya2 inh	D2 agonist	D2 potentiator	gsp antagonist
CCCCCCOC(=O)Cc1c(C)nc(-c2ccccc2)[nH]c1=O	?	1	2	0.4	-9	10%
COc1ccc(CCNC(=O)Nc2cc(F)c(F)cc2Cl)cc1OC	13%	7	0	-7.4	-11	6%
Cc1ccc(NS(=O)(=O)N2CCCCC2)cc1	-71%[inhibitor]	7	-4	5.3	2	-11%
CSc1ccccc1NC(=S)Nc1cccc(C(F)(F)F)c1	7%	0	8	-2.1	3	-6%
Cn1c(SCC(=O)NCc2ccc3c(c2)OCO3)nnc1-c1c[nH]c2ccccc12	-34%[inhibitor]	-9	-2	-1.9	-2	5%
Nc1c(C(=O)N/N=C/c2ccc([N+](=O)[O-])cc2)sc2nnc(-c3ccccc3)c(-c3ccccc3)c12	18%	5	1	-6.2	-6	-6%
CCOC(=O)C1(CCc2ccccc2)CCN(Cc2nccn2CC)CC1	-11%[15.4 µM]	6	-1	-1.0	-23	0%
CCc1cc(-c2nnc(SCC(=O)NC3CC3)n2C)cs1	33%[15.4 µM]	2	19	-5.5	-4	-9%
Cc1ccc(N(CC(=O)N/N=C/c2cccs2)S(C)(=O)=O)cc1	-8%	10	-4	-0.4	-16	10%
O=C(O)c1ccccc1SC1CC(=O)N(c2ccc3c(c2)OCO3)C1=O (stereo not drawn)	?	-5	-1	-3.4	-4	3%
O=C1CS(=O)(=O)N(Cc2ccccc2F)c2ccc(Br)cc21	/	3	3	1.7	9	-3%
Cc1ccccc1NC(=O)Nc1nnc(CC(=O)NCc2ccccc2)s1	5%	16	0	-3.2	-13	16%
COc1ccc(CCC(=O)NNC(=S)NCc2ccc(F)cc2)cc1	20%	10	2	-3.0	-2	14%
Cc1cc(NC2CCCCC2)nc2ccccc12	?	/	-13	-3.8	-14	19%
Cc1ccc(-n2c(C)cc(C(=O)OCC(=O)N(C)C3CCS(=O)(=O)C3)c2C)cc1 (stereo not drawn)	6%	-12	1	-1.7	0	-1%
Cc1ccc(NC(=O)c2cc(N3C(=O)C=CC3=O)ccc2Cl)cc1C	-6%	-10	-21	-4.6	-25	-7%
COc1ccc(OC)c(C(c2nnnn2Cc2ccccc2)N2CCN(C3CCCCC3)CC2)c1 (stereo not drawn)	0%	21	14	-3.4	-32	-7%[15.4 µM]
COCCn1c(-c2ccco2)nc2nc3ccccc3nc21	?	-4	2	-2.2	-12	-1%
O=C(CCn1cccc1)Nc1cccc(F)c1	-12%	-1	-13	-2.3	3	0%
O=C(CCc1ccccc1)NC(=S)Nc1ccccc1Br	-39%[inhibitor]	1	5	8.6	-15	-4%

SMILES	gsp agonist	CtBP-E1A blk	Six1-Eya2 inh	D2 agonist	D2 potentiator	gsp antagonist
Cc1ccc(C(=O)OCC(=O)NCc2ccc3c(c2)OCO3)o1	-23%	0	3	-0.8	-2	10%
Cc1c(C)c2c(C)[nH]nc2oc1=O	?	-16	-15	-1.2	13	4%
O=C(Nc1cccc(O)c1)c1ccc(Br)c(S(=O)(=O)N2CCCCC2)c1	-35%	-17	-15	1.3	-4	3%
Cc1cccc(OCCn2c(NC(=O)c3ccco3)nc3ccccc32)c1	-50%[inhibitor]	-3	-5	-2.5	-8	-5%
COc1ccc2c(c1)CC/C2=N\OC(=O)c1cccc(C)c1	6%	-3	11	-0.6	-4	-16%
COc1cc(C)c(C)cc1S(=O)(=O)NC1CC(C)(C)NC(C)(C)C1	-1%	3	-8	-4.2	-2	13%
COCCn1nnnc1CN(Cc1ccco1)Cc1cc2cc3c(cc2[nH]c1=O)OCO3	4%	30	17	-3.1	-15	-14%
C[C@H](NC(=O)C1CC(=O)N(c2ccc3c(c2)OCCO3)C1)C(=O)NC1CCCC1 (stereo partly drawn)	-68%[inhibitor]	8	2	-0.9	6	6%
O=C(NNC(=O)c1ccccc1F)c1cccc(S(=O)(=O)N2CCc3ccccc32)c1	1%	/	-1	11	-1	-21%
COc1cc(/C=N\Nc2nc(-c3ccc(C)cc3)c(NC(C)=O)s2)ccc1O	9%	?	-8	?	9	?
CC(C)(C)C(=O)CSc1ncnc2c1cnn2-c1ccccc1	7%[15.4 µM]	-6	5	-2.9	-1	16%
CO/N=C(\N)c1nonc1N	10%	0	0	-4.6	-8	6%
Cc1cccc(NC(=O)CNC(=O)CCNC(=O)c2ccc(C(C)(C)C)cc2)c1C	9%	/	3	-2.1	-5	1%
O=C1NC2(CCCCCC2)C(=O)N1Cc1ccccc1Br	?	5	4	1.5	2	14%
Cc1cc(/C=N/NC(=O)C(=O)NCc2ccccn2)c(C)n1-c1cccc(Br)c1	-16%	-12	-14	10	0	5%
CC[C@H](C)Cc1cn([C@@H](CCCCN)C(=O)NCCCCCCCCCCC(=O)N2CCNCC2)nn1	-30%[inhibitor]	/	8	-4.1	-14	10%
COc1ccccc1NC(=S)Nc1ccc2cn[nH]c2c1	11%[15.4 µM]	9	7	1.3	3	/
CCc1nccn1S(=O)(=O)c1ccc2ccc(C)cc2c1	24%	-2	-2	-0.3	-4	0%
CCNC(=S)N(CCc1c(C)[nH]c2ccc(F)cc12)Cc1cccnc1	-37%[inhibitor]	/	-7	-1.9	-11	?
O=C(Cc1ccccc1)N1CCc2[nH]nc(-c3ccccc3)c2C1	0%[15.4 µM]	-1	0	3.0	-3	3%

Part of the list above, with each value named:
COc1cc(/C=N\Nc2nc(-c3ccc(C)cc3)c(NC(C)=O)s2)ccc1O
- gsp agonist = 9%
- CtBP-E1A blk = ?
- Six1-Eya2 inh = -8
- D2 agonist = ?
- D2 potentiator = 9
- gsp antagonist = ?

CC(C)(C)C(=O)CSc1ncnc2c1cnn2-c1ccccc1
- gsp agonist = 7%[15.4 µM]
- CtBP-E1A blk = -6
- Six1-Eya2 inh = 5
- D2 agonist = -2.9
- D2 potentiator = -1
- gsp antagonist = 16%

Continued:
SMILES	gsp agonist	CtBP-E1A blk	Six1-Eya2 inh	D2 agonist	D2 potentiator	gsp antagonist
CCC(=O)N1CCN(c2ccc(NC(=O)c3ccco3)cc2)CC1	?	4	8	1.3	-17	1%
COc1ccc(Cl)cc1NC(=O)c1cnc2n(c1=O)CCS2	18%	-1	6	-5.9	-3	-4%
COc1ccc(NC(=O)c2csc3c2CCCC3)cc1	12%	4	0	-1.5	5	-24%
CC1(C)CC(=O)C2=C(C1)N(c1ccccc1)C(=O)C(C(=O)OCc1ccccc1)C2 (stereo not drawn)	/	0	5	-0.5	4	-6%
COc1ccc(NS(=O)(=O)c2ccc3c(c2)CCC(=O)N3)c(OC)c1	24%	-6	-6	0.7	-1	-2%
CN(Cc1ccccc1F)c1nc(-c2cccnc2)nc2ccccc12	1%[15.4 µM]	0	?	-1.1	-20	?
CCOc1ccc(C2/C(=C(\O)c3ccc4c(c3)OCCO4)C(=O)C(=O)N2Cc2cccnc2)cc1OCC (stereo not drawn)	?	6	3	-1.9	-10	10%
O=C(Nc1ccc(NC(=O)C2CC2)nc1)c1ccccc1F	3%[15.4 µM]	-4	-8	-1.4	3	-8%
O=C(N/N=C/c1ccccn1)c1cccnc1	-15%	/	-24	4.1	5	3%
CN(C)Cc1c(O)ccc2ccccc12	32%	4	-1	-3.2	-5	8%
COc1ncc(C2=CC(=O)CC(C)(C)C2)cn1	/	-8	-10	-2.1	-6	8%
Cc1ccc(-n2c(Cn3c(C)nc4ccccc43)n[nH]c2=S)cc1	0%	/	4	3.0	-14	-13%
Cc1nnc(C)n1/N=C/c1cccc([N+](=O)[O-])c1	-3%[15.4 µM]	3	-1	-2.4	-3	11%
O=C(COc1ccc(-n2cnnn2)cc1)Nc1ccc(F)c(F)c1	-5%	1	-1	6.0	17	7%
CCn1cc(C(=O)N2CCN(c3ccccc3)CC2)c(=O)c2cc(S(=O)(=O)N3CCOCC3)ccc21	?	-6	-1	2.7	-4	-1%
COc1ccc(C(=O)N2CCN(C3CCCCC3)CC2)c(OC)c1	27%	-3	0	0.1	-7	-14%
CCCS(=O)(=O)n1nc(-c2ccc(OC)cc2OC)cc1N	-4%	-4	8	-3.1	5	-5%
N/C(Cn1cncn1)=N\OC(=O)c1ccc(Cl)cc1Cl	3%	-12	-13	6.5	24	8%
Cc1ccc(COc2ccc(-c3nnco3)cc2)cc1	-15%	/	2	-6.8	-18	6%
